UCH37 inh – inhibitors of human deubiquitinating enzyme UCH37. 330,000 compounds, 0.33% hits. inhibition, % (concentration not given with the values). purified proteasome/UCH37, Ub-AMC cleavage fluorescence. Q9Y5K5;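 active = mean of two replicates above 20%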;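 note: 0% = compound-free wells with enzyme and 100% = wells lacking proteasome; stock transfer was 100 nL into about 20 µL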
Target sequence (Q9Y5K5 whole entry, looked up): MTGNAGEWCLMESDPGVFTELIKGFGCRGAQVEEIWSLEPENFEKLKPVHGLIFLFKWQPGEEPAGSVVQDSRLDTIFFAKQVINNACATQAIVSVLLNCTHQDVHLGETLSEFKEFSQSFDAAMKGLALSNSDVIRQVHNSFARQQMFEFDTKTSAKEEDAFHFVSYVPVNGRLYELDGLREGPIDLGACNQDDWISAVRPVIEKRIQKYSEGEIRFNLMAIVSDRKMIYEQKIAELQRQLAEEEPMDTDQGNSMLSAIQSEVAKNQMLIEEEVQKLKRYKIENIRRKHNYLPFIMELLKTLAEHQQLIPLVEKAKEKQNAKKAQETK
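Assay system: Proteasome-bound UCH37. Buffer or medium: pH 7.4 Tris-HCl (50 mM) with ovalbumin, ATP-MgCl2, DTT. Incubation: 30 min preincubation with enzyme, 25 min cleavage at room temperature. Measured by: fluorescence, ex 355 nm, em 460 nm. Read-out basis: percent inhibition. Control set: wells without proteasome as full block, compound-free enzyme plus substrate as uninhibited.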
LANA-H2B inh – blocks KSHV LANA binding to histone H2A/H2B; cell-free LANA-H2A/H2B peptide, fluorescence polarization; AID 2629; Q9QR71; inhibition, % (concentration not given with the values); 320,000 compounds, 0.6% hits; in the data active = inhibition mostly above about 10%, no sharp cut-off; inactive = mostly below about 6.7%;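 note: stock transfer was 7.5 nL into about 10 µL; 0% = median of vehicle wells and 100% = median of positive control wells; one replicate is shown; the record names a cut of 25% in any replicate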
Beta2AR agonist – human beta-2 adrenergic receptor agonism by FAP. Am2.2-beta2AR cells, FAP receptor internalization, flow cytometry; reference of the scale not given here. 340,000 compounds, 0.43% hits. response, % (test concentration not listed);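 active = response above a set limit, near 3 SD of response in nonfluorescent compounds, cut at about 42% in these data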;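 note: stock transfer was 100 nL into about 11 µL; a reference agonist was the positive control; negative values mostly stem from fluorescent compounds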
Target sequence (P07550 whole entry, looked up): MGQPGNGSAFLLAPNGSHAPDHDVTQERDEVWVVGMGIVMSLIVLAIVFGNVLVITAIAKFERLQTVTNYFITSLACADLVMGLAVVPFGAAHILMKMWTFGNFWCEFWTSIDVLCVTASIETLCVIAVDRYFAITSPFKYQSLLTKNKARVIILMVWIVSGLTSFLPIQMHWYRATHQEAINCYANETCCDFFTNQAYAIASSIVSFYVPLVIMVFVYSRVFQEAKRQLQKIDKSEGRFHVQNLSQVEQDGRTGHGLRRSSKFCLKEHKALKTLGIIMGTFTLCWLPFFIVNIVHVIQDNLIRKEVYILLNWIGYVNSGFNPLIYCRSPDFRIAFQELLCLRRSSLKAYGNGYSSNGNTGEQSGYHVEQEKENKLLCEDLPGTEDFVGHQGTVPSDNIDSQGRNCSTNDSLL
E coli growth – inhibitors of Escherichia coli growth. OD600, 23 h; active compounds read low. OD600 absorbance (concentration not given with the values). 330,000 compounds, 0.21% hits;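 active = OD600 absorbance below the run mean of sample wells minus 3.6 SD, in any replicate, cut at about 0.56 in these data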;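 note: stock transfer was 300 nL into about 60 µL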
HNF4A DNA FP – change in binding of human HNF4 alpha to DNA | P41235 | HNF4a-FITC DNA binding, fluorescence polarization, 1 h | activity change, % at 10 µM | 360,000 compounds, 0.3% hits; in the data active = activity change above about 30%, passing the limit was not always enough;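 note: controls were the assay level and a saturating level of protein; the project sought stronger binding though the title names inhibitors; some compounds called inactive have numbers as strong as hits; positive values seem to mean higher polarization but the record does not say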
ALR inh – blocks human ALR sulfhydryl oxidase activity. P55789. purified ALR, DTT oxidation, H2O2 HRP-luminol luminescence. inhibition, % (no concentration beside the values). 290,000 compounds, 3.8% hits;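 active = mean and each replicate at 75% or more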;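 note: stock transfer was 7.5 nL into about 7.5 µL; 0% = neutral wells and 100% = wells with inactivated enzyme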
Target sequence (P55789 whole entry, looked up): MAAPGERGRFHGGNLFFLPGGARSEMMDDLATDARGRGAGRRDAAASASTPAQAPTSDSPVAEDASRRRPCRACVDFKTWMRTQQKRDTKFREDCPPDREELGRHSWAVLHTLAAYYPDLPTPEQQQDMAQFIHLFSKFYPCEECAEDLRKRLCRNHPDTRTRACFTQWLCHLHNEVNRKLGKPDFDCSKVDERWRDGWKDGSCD
FGF22 binding – shifts melting point of recombinant human FGF22 | recombinant FGF22 thermal shift, SYPRO orange fluorescence; percent of sucrose octasulfate shift, DMSO zero | Q9HCT0 | 340,000 compounds, 1.5% hits | calls only at 9.99 µM;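 active = melting point raised past a set limit in the mean and every replicate; three in four hits are not shown here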
* = called active by the depositor; i = inactive; nt = no result given; + = active, no number. This is a subset; count on the stated rates, not on these rows.

Below each SMILES: UCH37 inh	LANA-H2B inh	Beta2AR agonist	E coli growth	HNF4A DNA FP	ALR inh	FGF22 binding
- COc1ccccc1/C=C/C(=O)NC(=S)N1CCN(C)CC1
→ 1.1	2.7	-0.7	0.628	-1.7	-4.5	i
- O=C(CCN1C(=O)c2ccccc2C1=O)Nc1ccc(F)cc1F
→ 1.0	1.4	1.9	0.722	0.4	-17.4	nt
- C=CCn1c(SCC(=O)c2ccc(Br)cc2)nnc1C(C)NC(=O)Cc1ccc(OC)cc1 (stereo unspecified)
→ 2.5	-1.1	-1.8	0.644	-5.8	24.1	i
- Cc1ccc2nc(N/N=C/c3ccccc3C#N)nc(-c3ccccc3)c2c1
→ nt	-0.6	7.9	nt	4.1	4.9	i
- CCCC(CCC)C(=O)NNc1cc(=O)c2c(=O)n(C)c(=O)n(C)c2[nH]1
→ nt	4.0	9.8	nt	2.9	5.2	nt
- Cc1[nH]c2ccc(-c3n[nH]c(=S)n3-c3ccccc3)cc2c1C
→ 2.9	-1.3	nt	0.717	-2.1	-0.3	nt
- O=S(=O)(NCCCSc1ccccc1)c1ccccc1F
→ 1.5	4.7	-6.7	0.618	-2.0	nt	i
- CCOc1cc(C2NC(=O)NC(C)=C2C(C)=O)cc(Cl)c1OCC(=O)O (stereo unspecified)
→ 3.3	2.6	4.8	0.712	-2.9	9.4	nt
- CCN1CCN(C(=O)CS(=O)Cc2nc(-c3cccc(C)c3)oc2C)CC1 (stereo unspecified)
→ 3.3	-9.1	-1.8	0.662	1.1	98.8*	i
- CC1C(=O)Nc2ccc(S(=O)(=O)Nc3ccccc3Br)cc2NC1=O (stereo unspecified)
→ 1.4	-1.1	4.0	0.673	-0.7	-13.4	i
- CCCCn1c(N)c(N(CCOC)C(=O)c2cc3ccccc3cc2OC)c(=O)[nH]c1=O
→ -0.1	-0.2	-4.1	0.622	0.2	nt	nt
- COc1ccccc1C(=O)Nc1c(C)n(C)n(-c2ccccc2)c1=O
→ 2.9	2.1	-3.3	0.68	1.1	-0.3	nt
- CCCCNC(=O)c1c[nH]c2ccc(S(=O)(=O)N3CCOCC3)cc2c1=O
→ -12.5	0.0	-11.9	0.684	0.1	4.3	i
- Cn1ccc(C(=O)N2CCCc3ccccc32)n1
→ 0.7	-5.8	-5.4	0.701	-1.0	-5.5	nt
- CC(C)(C)c1ccc(S(=O)(=O)N2C=CC(C(F)(F)F)=NCC2)cc1
→ 1.2	-2.6	-4.8	0.687	2.4	10.3	nt
- COC(=O)C1=C(C)N(c2cc(C)cc(C)c2)/C(=C/c2ccc(O)cc2)C1=O
→ 1.8	-0.4	-8.6	0.649	5.0	17.2	i
- O=C(c1cccc(F)c1)N1C2C=CC(C2)C1(C(F)(F)F)C(F)(F)F (stereo unspecified)
→ -1.5	-2.9	0.2	0.675	-0.7	0.0	nt
- O=C(Nc1ccc(F)cc1)c1ccc(CSc2ccccc2)o1
→ 2.1	3.1	-5.8	0.612	-0.8	-24.9	i
- Nc1ccc(CCn2ccnc2)cc1
→ -0.8	-2.6	-10.7	0.684	-2.5	-5.9	i
- O=C(c1ccc(OC2CCN(C(=O)c3cccnc3)CC2)cc1)N1CCCCCC1
→ 2.7	5.3	-0.4	0.675	1.4	-3.7	i
- COCC1CCCCN1Cc1cn[nH]c1-c1ccc(OC)cc1OC (stereo unspecified)
→ 4.0	-4.4	-5.2	0.709	5.7	nt	i
- CC1(C)Cc2ccccc2-c2c1c(=O)n(Cc1ccccc1)c1nnnn21
→ -5.3	2.7	-2.0	0.727	-1.6	nt	nt
- Oc1ccccc1/C=N/Nc1ccnc(SCc2ccccc2)n1
→ nt	i	3.2	nt	0.0	2.7	i
- CCOc1ccc(NS(=O)(=O)CC23CCC(CC2=O)C3(C)C)cc1 (stereo unspecified)
→ 3.6	-7.6	1.2	0.693	0.7	-18.3	nt
- C=CCC[C@@H](Cc1ccc(F)cc1)C(=O)OCCNC(=O)[C@@H](CC=C)CC(=O)N[C@@H](CO)Cc1ccccc1
→ 3.9	25.7*	0.1	0.673	3.3	-0.5	i
- O=C(c1ccc(F)cc1)N1CCN(S(=O)(=O)c2ccc(Br)cc2)CC1
→ 7.6	7.3	-3.4	0.732	0.4	-13.0	i
- Cc1ccc(C2=Nc3ccccc3N=C(c3ccco3)C2)c(O)c1
→ -3.2	-4.7	-8.5	0.774	6.1	3.2	nt
- Cc1cc(C)cc(NC2=CC(=O)CC(c3ccco3)C2)c1 (stereo unspecified)
→ 0.8	0.6	-3.5	0.682	3.1	-35.0	nt
- Cc1ccc(-n2nc3c(=O)n(CC(=O)NC4CCCCC4)nc(C)c3c2C)cc1
→ -0.2	2.5	3.9	0.688	-2.7	nt	i
- CC(=O)c1c(C)[nH]c(C(=O)OCC(=O)Nc2ccc3c(c2)OCCO3)c1C
→ 4.5	5.7	2.9	0.707	1.8	nt	i
- O=C1OCCN1C(=O)[C@H]1[C@H](c2ccc([N+](=O)[O-])cc2)C(c2cccc(Cl)c2)=NN1c1ccc(Br)cc1
→ 6.0	nt	7.2	0.717	0.2	nt	i
- CCOC(=O)/C(=C\Nc1ccccc1C(F)(F)F)Sc1ncc(C(F)(F)F)cc1Cl
→ 5.3	2.0	-6.2	0.68	0.7	-5.6	nt
- O=C(Cc1ccc(Br)cc1)Nc1nc2ccccc2[nH]1
→ 1.9	-0.7	7.2	0.717	4.1	nt	i
- ClC1CCCCC1n1nnc2ccccc21 (stereo unspecified)
→ -0.5	1.6	1.6	0.612	-4.3	-1.6	i
- CCOc1cc(NC(=S)NCCCN2CCOCC2)c(OCC)cc1NC(=O)c1ccccc1C
→ 5.8	-2.1	2.5	0.677	0.5	-18.1	i
- O=C(NCc1ccccc1)c1cccc(NC(=O)C2CC2)c1
→ nt	nt	-5.3	nt	0.0	nt	i
- CC(=O)c1c(N2CCCC2)[nH]c(-c2ccccc2)nc1=S
→ 6.7	3.0	2.6	0.707	-1.4	0.6	i
- O=C(Cn1cc(COc2ccc(Br)cc2)nn1)c1ccc(O)cc1
→ nt	nt	7.0	nt	-0.8	nt	+
- Cc1ccc(N(C(=O)Cn2nnc(-c3ccc(F)cc3)n2)C(CC(C)C)C(=O)NCC2CCCO2)cc1 (stereo unspecified)
→ 1.9	0.1	-6.7	0.705	1.7	-2.1	nt
- CCC(C)NC(=O)CN1C(=O)CC(C)(C)S(=O)(=O)c2ccccc21 (stereo unspecified)
→ 0.1	0.0	4.7	0.758	-1.0	-9.2	i
- COc1ccc(NC(=O)CN(C)C(=O)c2cc(CN3C(=O)c4ccccc4C3=O)ccc2OC)cc1
→ 3.8	-5.6	0.7	0.664	-1.8	-0.4	i
- CC1Cc2cc(/C(O)=C3\C(=O)C(=O)N(CCN4CCOCC4)C3c3ccccc3F)ccc2O1 (stereo unspecified)
→ 9.2	-0.1	2.6	0.754	-2.7	-1.8	nt
- COc1ccccc1C1C(C(N)=O)=C(C)Nc2nc(CCCO)nn21 (stereo unspecified)
→ 0.8	2.6	-0.8	0.668	0.5	-0.8	i
- Cc1cc(NC(=S)Nc2cccc3ccccc23)n[nH]1
→ nt	i	1.7	nt	1.7	10.1	i
- Cc1cc(O)ccc1C1(c2ccc(O)cc2C)OC(=O)c2ccccc21
→ 6.7	-3.2	8.4	0.75	-2.1	47.5	nt
- CN(c1ccccc1)S(=O)(=O)c1cccc(NS(=O)(=O)c2cccc(C(=O)O)c2)c1
→ 3.0	2.0	1.9	0.621	0.8	nt	i
- O=[N+]([O-])c1ccc2c(c1)C=C1CCCCC1(N1CCCCC1)O2 (stereo unspecified)
→ 2.7	1.6	0.5	0.691	-3.8	1.3	nt
- O=C(Cc1ccccc1F)Nc1ccc(S(=O)(=O)N2CCCC2)cc1
→ -0.2	2.1	-2.4	0.641	-4.5	5.4	i
- Cn1c(SCC(=O)Nc2ccc(F)cc2)nnc1C1CC1
→ 1.9	0.0	-6.7	0.702	3.4	nt	i
- O=C(Oc1ccc(-c2cn3c(n2)SCC3)cc1)c1ccccc1
→ 0.6	1.8	-11.9	0.655	-2.2	-6.4	nt
- CCc1ccccc1OCCCCN1CCCCC1
→ 5.4	0.4	2.8	0.616	0.9	-13.5	i
- C(=C\CSc1nnnn1-c1ccccc1)/CSc1nnnn1-c1ccccc1
→ -1.2	-4.6	-7.4	0.731	1.4	-31.2	nt
- CC1CCCCC1N1CCN(C(=O)c2cccc(F)c2)CC1 (stereo unspecified)
→ 1.3	-3.5	-5.4	0.707	0.6	nt	nt
- NC(=O)C1=C[C@H](c2csc3ccccc23)C[C@H](OCc2ccc(CO)cc2)O1
→ 0.8	0.8	2.7	nt	-5.3	-14.8	i
- Cc1cc(C(=O)NNC(=O)c2cccc(Cl)c2)no1
→ 3.6	2.4	3.6	0.632	-0.8	3.5	i
- CCNc1nc(NC(C)C)nc(SCCOc2ccc(C)cc2)n1
→ 6.6	0.4	1.9	0.757	0.3	-3.5	nt
- CCC(C)(C)C1CCC(NC(=O)N2CCN(c3ccccc3O)CC2)CC1 (stereo unspecified)
→ 1.9	3.2	1.3	0.64	-2.3	nt	i
- CC(=O)c1cccc(NC(=O)CSc2nc(=O)n(Cc3ccccn3)c3c2CCC3)c1
→ 6.6	-0.9	2.2	0.669	-1.5	98.9*	i
- O=C(CSc1nncs1)Nc1ccc(Cl)cc1C(F)(F)F
→ 3.1	1.2	4.5	0.674	-1.5	-11.7	i
- CN(C(=O)C1CCC(=O)N(CCCN2CCCC2=O)C1)C(C1CC1)C1CC1 (stereo unspecified)
→ 0.7	-1.3	0.2	0.692	-0.5	-2.1	i

The list goes on.
Below each SMILES: UCH37 inh	LANA-H2B inh	Beta2AR agonist	E coli growth	HNF4A DNA FP	ALR inh	FGF22 binding
- Cc1ccc(NC(=O)c2c(Cl)nc3ccccn23)cc1
→ 5.4	-3.0	1.8	0.729	3.7	-6.1	nt
- COc1ccc(OCC(=O)Nc2ccc(NC(=O)c3ccccc3Cl)c(OC)c2)cc1
→ -0.9	0.5	-0.7	0.719	0.3	-1.2	i
- COCCN(C(=O)CCSc1ccc(F)cc1)c1c(N)n(Cc2ccccc2)c(=O)[nH]c1=O
→ -0.7	-2.6	7.3	0.621	-4.3	-2.9	i
- O=C(COC(=O)/C=C/c1ccc(Cl)cc1Cl)NCCC1=CCCCC1
→ -0.7	nt	3.2	nt	1.0	nt	nt
- COc1ccc(NC2=CC(=O)CC(c3ccccc3)C2)c(OC)c1 (stereo unspecified)
→ 0.1	3.2	9.1	0.695	1.3	3.0	nt
- Cc1nc2nc(CC(=O)O)[nH]n2c(=O)c1[N+](=O)[O-]
→ 9.2	2.8	-1.7	0.703	2.8	-0.6	i
- CCc1ccccc1S(=O)(=O)Cc1ccc(C(=O)NCc2ccc3c(c2)OCO3)o1
→ 5.4	0.5	-1.3	0.75	3.7	nt	i
- Cc1sc(NC(=S)NC(=O)C(C)(C)C)c(C(N)=O)c1C
→ 5.5	-2.0	-9.3	0.694	5.3	4.0	nt
- O=C(Nc1cccc(Cl)c1)c1cc(-c2ccco2)on1
→ 0.3	-8.9	-5.1	0.651	9.2	nt	i
- CCCc1cc(C(=O)Nc2ccc(C(C)=O)cc2)no1
→ 3.9	-0.1	0.4	0.733	-5.4	21.4	i
- CC1(C)C[C@H]2C3=CCC4[C@@]5(C)CC[C@H](O[C@@H]6O[C@H](C(=O)O)[C@@H](O)[C@H](O)[C@H]6O)[C@@](C)(CO)C5CC[C@@]4(C)[C@]3(C)C[C@H](O)[C@@]2(CO)[C@@H](O)[C@@H]1O (stereo partly specified)
→ 0.4	-2.3	-5.7	nt	-3.3	-6.6	i
- C[C@H](NC(=O)c1ccco1)C(=O)Nc1cccc([N+](=O)[O-])c1
→ 1.7	-3.1	-2.0	0.709	-3.6	nt	nt
- O=C(COc1coc(CN2CCc3ccccc32)cc1=O)Nc1ccccc1
→ 3.0	-2.5	8.0	0.651	4.5	6.3	i
- COCCN(Cc1cc2cc(C)ccc2nc1Cl)C(=O)Nc1ccccc1C
→ 5.4	2.3	-2.7	0.694	-0.2	-2.6	i

High-throughput results from PubChem.
